Compound activity as filed in PubChem BioAssay.
PD-1 reverse act = activators reversing PD-1 mediated T-cell inhibition | 29,000 tested, under 10 active | activation, % (test concentration not listed) | primary human CD4 T cells, PD-L1 beads, CellTiter-Glo 96 h;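 active = replicate mean of 50% or more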;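 also: 0% = median vehicle wells and 100% = positive control; 100 nL library stock added to about 50 µL; numbers are from one replicate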
YB-1 expression = YB-1 expression inhibition; U2OS, qRT-PCR YB-1 vs CDIP delta delta Cp, 16 h; hits give high values; zero = DMSO, each unit about twofold; delta delta Cp (YB-1 minus CDIP) (concentration not given with the values); actives 0.37% (n = 30,000); AID 434959;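 active = delta delta Cp rounded down to an integer at or above 3, about 3 SD of DMSO wells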;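 also: higher means less YB-1 transcript or more CDIP transcript relative to DMSO; stock transfer was 100 nL into about 100 µL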
Shh pathway inh = Sonic Hedgehog pathway inhibition; Shh-LIGHT2 Gli-luciferase reporter, 30 h; inhibition, % (no concentration beside the values); actives 2.1% (n = 22,000); AID 2313;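 active = replicate mean of 65% or more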;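 also: pathway switched on by Shh-conditioned medium diluted 1 in 25 in low serum; 100 nL library stock added to about 40 µL; 0% = median of neutral wells and 100% = positive control level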
MITF inh = MITF inhibition | TRPM1 promoter luciferase, luminescence, 24 h | inhibition, % (concentration not given with the values) | actives 0.28% (n = 37,000) | AID 2240;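 active = most replicates at 85% or more, or half of them and the mean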;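 also: human melanocyte line stably carrying TRPM1 promoter luciferase reporter; 0% = vehicle wells and 100% = a positive control; the first replicate is given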
Starred values were filed as active, the others as inactive. This is a subset; the hit share may differ from the screen's.

What do the screens show for `C[C@H]1CN([C@@H](C)CO)C(=O)Cc2cc(NC(=O)CCCCCC(=O)Nc3ccccc3N)ccc2O[C@H]1CN(C)Cc1ccc(Oc2ccccc2)cc1`?
PD-1 reverse act: 0.1; YB-1 expression: -0.26; MITF inh: 49

How did C[C@@H]1CN([C@@H](C)CO)C(=O)c2cc(NC(=O)Nc3ccc(C(F)(F)F)cc3)ccc2O[C@@H]1CN(C)C(=O)NC1CCCCC1 do in these assays?
PD-1 reverse act: -4.3; YB-1 expression: 0.011; Shh pathway inh: 25; MITF inh: 48

How did C[C@H]1CN([C@@H](C)CO)C(=O)Cc2cc(NC(=O)Nc3cccc4ccccc34)ccc2O[C@H]1CN(C)Cc1ccc2c(c1)OCO2 do in these assays?
YB-1 expression: 0.18; Shh pathway inh: -3; MITF inh: -4

How did C[C@@H]1CCCCO[C@H](CN(C)S(C)(=O)=O)[C@@H](C)CN([C@H](C)CO)C(=O)c2cc(N(C)C)ccc2O1 do in these assays?
PD-1 reverse act: 1.8; YB-1 expression: 0.54; Shh pathway inh: 19; MITF inh: -21

What do the screens show for `C[C@@H]1CN([C@H](C)CO)C(=O)c2cc(NC(=O)C3CC3)ccc2O[C@@H]1CN(C)Cc1ccc(-c2ccccc2)cc1`?
PD-1 reverse act: -1.2; YB-1 expression: 0.12; Shh pathway inh: 40; MITF inh: -2

What do the screens show for `C[C@@H]1CN([C@H](C)CO)C(=O)c2cccc(NS(=O)(=O)c3ccc(F)cc3)c2O[C@H]1CN(C)C(=O)Nc1ccc2c(c1)OCO2`?
PD-1 reverse act: 2.1; YB-1 expression: -0.43; Shh pathway inh: -6; MITF inh: -5

Results for C[C@H](CO)N1C[C@H](C)[C@@H](CN(C)Cc2ccc(Cl)c(Cl)c2)Oc2c(NS(=O)(=O)c3ccccc3)cccc2C1=O ?
PD-1 reverse act: 0.1; YB-1 expression: 0.1; Shh pathway inh: -12; MITF inh: -4

Results for COc1ccc(S(=O)(=O)N(C)C[C@H]2Oc3ccc(NC(=O)Nc4ccc(C(F)(F)F)cc4)cc3C(=O)N([C@H](C)CO)C[C@H]2C)cc1 ?
PD-1 reverse act: -1.2; YB-1 expression: 0.51; Shh pathway inh: -10; MITF inh: 28

What do the screens show for `Cc1c(NC(=O)CSc2nc3c(c(C(F)(F)F)n2)CCc2ccccc2-3)c(=O)n(-c2ccccc2)n1C`?
PD-1 reverse act: 1.9; MITF inh: -8

What do the screens show for `C/C=C1/CN[C@H]2Cc3c([nH]c4ccccc34)C(=O)C[C@H]1C2C(=O)OC` (stereo partly drawn)?
PD-1 reverse act: -0.9; YB-1 expression: -0.18; Shh pathway inh: 3; MITF inh: 2

What do the screens show for `COc1ccc(NC(=O)CN(c2ccccc2Br)S(C)(=O)=O)cc1OC`?
PD-1 reverse act: 2.2; MITF inh: -7

Results for C[C@@H]1CN([C@H](C)CO)C(=O)Cc2cc(NC(=O)CCC(F)(F)F)ccc2O[C@H]1CN(C)Cc1ccncc1 ?
PD-1 reverse act: 1.2; YB-1 expression: 0.15; Shh pathway inh: 9; MITF inh: 6

Results for C[C@H](CO)N1C[C@H](C)[C@@H](CN(C)Cc2ccc(-c3ccccc3)cc2)Oc2ccc(NS(C)(=O)=O)cc2C1=O ?
PD-1 reverse act: -1.1; YB-1 expression: -0.49; MITF inh: -22

Results for COc1cc2c(c(O)c1OC)C(=O)CC(c1ccc(O)cc1)O2 (stereo not drawn) ?
PD-1 reverse act: 0.4; YB-1 expression: -0.34; Shh pathway inh: 33; MITF inh: -19

How did COc1ccc(NC(=O)Nc2ccc3c(c2)CC(=O)N([C@@H](C)CO)C[C@H](C)[C@@H](CN(C)Cc2ccc(C(=O)Nc4ccccc4N)cc2)O3)cc1 do in these assays?
PD-1 reverse act: -1.7; YB-1 expression: -0.045; MITF inh: -6

Brought forward from above: two entries, then new ones.
Results for COc1cc2c(c(O)c1OC)C(=O)CC(c1ccc(O)cc1)O2 (stereo not drawn) ?
PD-1 reverse act: 0.4; YB-1 expression: -0.34; Shh pathway inh: 33; MITF inh: -19

How did COc1ccc(NC(=O)Nc2ccc3c(c2)CC(=O)N([C@@H](C)CO)C[C@H](C)[C@@H](CN(C)Cc2ccc(C(=O)Nc4ccccc4N)cc2)O3)cc1 do in these assays?
PD-1 reverse act: -1.7; YB-1 expression: -0.045; MITF inh: -6

What do the screens show for `C[C@H](CO)N1C[C@H](C)[C@H](CN(C)Cc2ccncc2)Oc2ccc(NC(=O)Nc3ccc(C(F)(F)F)cc3)cc2CC1=O`?
PD-1 reverse act: -1.4; YB-1 expression: 0.091; Shh pathway inh: 20; MITF inh: 27

How did COC(=O)C1=C(C)NC(=S)NC1c1cc2c(cc1Br)OCO2 (stereo not drawn) do in these assays?
PD-1 reverse act: -1.6; YB-1 expression: 0.44; Shh pathway inh: 4; MITF inh: 9

What do the screens show for `C[C@H]1CN([C@@H](C)CO)C(=O)Cc2cc(NC(=O)C3CC3)ccc2O[C@@H]1CN(C)CC1CC1`?
PD-1 reverse act: 0.9; YB-1 expression: 0.1; Shh pathway inh: -20; MITF inh: 3

What do the screens show for `COc1cc([N+](=O)[O-])ccc1NC(=O)CSc1nc2c(c(C(F)(F)F)n1)CCCC2`?
PD-1 reverse act: 1.0; MITF inh: 10

Results for C[C@H](CO)N1C[C@H](C)[C@H](CN(C)Cc2ccccc2)Oc2ccc(NC(=O)Nc3ccccc3)cc2C1=O ?
PD-1 reverse act: 2.5; YB-1 expression: -0.049; MITF inh: -7

How did C[C@@H]1CN([C@@H](C)CO)C(=O)c2cccc(NC(=O)C3CCOCC3)c2O[C@@H]1CN(C)Cc1ccc(-c2ccccc2)cc1 do in these assays?
PD-1 reverse act: 1.0; YB-1 expression: -0.13; Shh pathway inh: -25; MITF inh: -11

Results for Cc1ccc(NC(=O)c2sc3ncn(CC(=O)Nc4sc5c(c4C#N)CCC5)c(=O)c3c2C)c(C)c1 ?
PD-1 reverse act: 1.3; MITF inh: -4

How did C[C@H]1CN([C@@H](C)CO)C(=O)c2cc(NS(C)(=O)=O)ccc2O[C@H]1CN(C)C(=O)Nc1ccccc1 do in these assays?
PD-1 reverse act: 5.4; YB-1 expression: -1.7; MITF inh: -4

Results for C[C@@H]1CN([C@H](C)CO)C(=O)Cc2cc(NC(=O)NC3CCCCC3)ccc2O[C@@H]1CN(C)S(=O)(=O)c1ccccc1 ?
PD-1 reverse act: -1.6; YB-1 expression: 0.51; Shh pathway inh: 13; MITF inh: -7

What do the screens show for `C[C@@H]1CN([C@@H](C)CO)C(=O)c2cc(NS(=O)(=O)c3ccc(F)cc3)ccc2O[C@@H]1CN(C)S(=O)(=O)c1ccc(Cl)cc1`?
PD-1 reverse act: 0.1; YB-1 expression: -0.33; Shh pathway inh: 39; MITF inh: 38

What do the screens show for `COc1ccc(OC(C)C(=O)Nc2ccc(OC)c(OC)c2)cc1` (stereo not drawn)?
PD-1 reverse act: 3.1; MITF inh: 1

Results for Cc1noc(C)c1S(=O)(=O)Nc1ccc2c(c1)C(=O)N([C@H](C)CO)C[C@H](C)[C@@H](CN(C)S(C)(=O)=O)OCCCC[C@@H](C)O2 ?
PD-1 reverse act: 2.5; YB-1 expression: 0.36; Shh pathway inh: -24; MITF inh: -9

How did COc1ccc(C2CC(c3cccs3)=NN2C(=O)CCC(=O)O)cc1 (stereo not drawn) do in these assays?
PD-1 reverse act: -2.7; MITF inh: 3

How did COc1ccc(S(=O)(=O)Nc2cccc3c2O[C@H](CN(C)S(=O)(=O)c2ccc(Cl)cc2)[C@H](C)CN([C@H](C)CO)C3=O)cc1 do in these assays?
YB-1 expression: 0.77; Shh pathway inh: 7; MITF inh: 11

How did Cc1cc(C)c(C)c(OCC(=O)NCc2ccccn2)c1 do in these assays?
PD-1 reverse act: -2.5; MITF inh: -19

Results for Cn1c(SCc2nc(-c3ccc(Br)cc3)no2)nnc1-c1ccco1 ?
PD-1 reverse act: 0.1; MITF inh: 43

How did Cc1ccc(S(=O)(=O)Nc2ccc3c(c2)C(=O)N([C@@H](C)CO)C[C@@H](C)[C@@H](CN(C)C(=O)NC2CCCCC2)O3)cc1 do in these assays?
PD-1 reverse act: -1.9; YB-1 expression: -0.48; Shh pathway inh: 18; MITF inh: 11

How did O=C(O)COc1ccc(Cl)cc1CO do in these assays?
PD-1 reverse act: 2.5; MITF inh: 3

What do the screens show for `CSc1nc2ccccc2n1CC(=O)Nc1ccccc1`?
PD-1 reverse act: 0.2; YB-1 expression: -0.29; Shh pathway inh: -12; MITF inh: -7

What do the screens show for `C[C@H]1CN([C@@H](C)CO)C(=O)Cc2cc(NC(=O)c3ccncc3)ccc2O[C@@H]1CN(C)Cc1ccc(Oc2ccccc2)cc1`?
YB-1 expression: 0.14; Shh pathway inh: 22; MITF inh: -2

Results for CCOC(=O)c1sc2ncn(CC(=O)Nc3ccc(OC)cc3)c(=O)c2c1C ?
PD-1 reverse act: -1.0; MITF inh: 23

How did Cc1ccc(S(=O)(=O)N(C)C[C@H]2Oc3c(NC(=O)Nc4ccc(F)cc4)cccc3C(=O)N([C@H](C)CO)C[C@@H]2C)cc1 do in these assays?
YB-1 expression: 0.18; Shh pathway inh: 26; MITF inh: -17

Results for C[C@@H]1CN([C@@H](C)CO)C(=O)c2cccc(NC(=O)C3CCOCC3)c2O[C@@H]1CN(C)Cc1ccc(Oc2ccccc2)cc1 ?
PD-1 reverse act: 0.9; YB-1 expression: -0.36; Shh pathway inh: -2; MITF inh: -2

What do the screens show for `C[C@@H]1CN([C@H](C)CO)C(=O)Cc2cc(NC(=O)Cc3ccccc3)ccc2O[C@@H]1CN(C)Cc1ccc(C(F)(F)F)cc1`?
PD-1 reverse act: -1.0; YB-1 expression: -0.76; MITF inh: -9

How did C[C@@H]1CN([C@H](C)CO)C(=O)Cc2cc(NC(=O)CCCCCC(=O)Nc3ccccc3N)ccc2O[C@@H]1CN(C)Cc1ccc(-c2ccccc2)cc1 do in these assays?
PD-1 reverse act: -3.2; YB-1 expression: -0.78; MITF inh: 27

What do the screens show for `C[C@@H]1CN([C@@H](C)CO)C(=O)Cc2cc(NC(=O)Nc3ccc(F)cc3)ccc2O[C@@H]1CN(C)C(=O)Nc1ccc(F)cc1`?
YB-1 expression: 0.18; MITF inh: -1

What do the screens show for `COc1ccc(NC(=O)N(C)C[C@H]2Oc3ccc(NC(=O)Nc4ccc(C(F)(F)F)cc4)cc3C(=O)N([C@@H](C)CO)C[C@H]2C)cc1`?
YB-1 expression: 0.31; Shh pathway inh: 35; MITF inh: 15

How did C[C@H]1CN([C@@H](C)CO)C(=O)c2cc(NC(=O)CCCN(C)C)ccc2O[C@@H]1CN(C)Cc1ccc(C(F)(F)F)cc1 do in these assays?
PD-1 reverse act: 1.4; YB-1 expression: 0.14; Shh pathway inh: 4; MITF inh: -10

What do the screens show for `O=S(=O)(NCc1cccnc1)c1ccc(Cl)c(Cl)c1Cl`?
PD-1 reverse act: 1.1; MITF inh: -10

What do the screens show for `C[C@H](CO)N1C[C@H](C)[C@H](CN(C)C(=O)Nc2cccc3ccccc23)Oc2c(NC(=O)NC3CCCCC3)cccc2C1=O`?
PD-1 reverse act: 1.3; YB-1 expression: 0.66; Shh pathway inh: -76; MITF inh: 5

How did COC(=O)C1CCCN1S(=O)(=O)c1ccccc1 (stereo not drawn) do in these assays?
PD-1 reverse act: -0.1; YB-1 expression: -0.15; Shh pathway inh: -8; MITF inh: -3

How did CCOc1cc(/C=C2\SCOC2=O)ccc1O do in these assays?
PD-1 reverse act: 0.1; YB-1 expression: -0.43; Shh pathway inh: -11; MITF inh: 6

How did C[C@@H]1CN([C@@H](C)CO)C(=O)c2cc(NS(C)(=O)=O)ccc2O[C@H]1CN(C)S(=O)(=O)c1ccccc1 do in these assays?
PD-1 reverse act: -0.5; YB-1 expression: -0.046; MITF inh: -15

Results for NC(=O)c1ccc(NCCCN2CCOCC2)c([N+](=O)[O-])c1 ?
PD-1 reverse act: 2.9; MITF inh: -24

How did CC(C)NC(=O)Nc1ccc2c(c1)C(=O)N([C@H](C)CO)C[C@@H](C)[C@H](CN(C)CC1CCCCC1)O2 do in these assays?
YB-1 expression: -0.34; MITF inh: -25

Entries shown so far that have two or more sulfur atoms:
Results for Cc1ccc(NC(=O)c2sc3ncn(CC(=O)Nc4sc5c(c4C#N)CCC5)c(=O)c3c2C)c(C)c1 ?
PD-1 reverse act: 1.3; MITF inh: -4

What do the screens show for `C[C@@H]1CN([C@@H](C)CO)C(=O)c2cc(NS(=O)(=O)c3ccc(F)cc3)ccc2O[C@@H]1CN(C)S(=O)(=O)c1ccc(Cl)cc1`?
PD-1 reverse act: 0.1; YB-1 expression: -0.33; Shh pathway inh: 39; MITF inh: 38

Results for Cc1noc(C)c1S(=O)(=O)Nc1ccc2c(c1)C(=O)N([C@H](C)CO)C[C@H](C)[C@@H](CN(C)S(C)(=O)=O)OCCCC[C@@H](C)O2 ?
PD-1 reverse act: 2.5; YB-1 expression: 0.36; Shh pathway inh: -24; MITF inh: -9

How did COc1ccc(S(=O)(=O)Nc2cccc3c2O[C@H](CN(C)S(=O)(=O)c2ccc(Cl)cc2)[C@H](C)CN([C@H](C)CO)C3=O)cc1 do in these assays?
YB-1 expression: 0.77; Shh pathway inh: 7; MITF inh: 11

How did C[C@@H]1CN([C@@H](C)CO)C(=O)c2cc(NS(C)(=O)=O)ccc2O[C@H]1CN(C)S(=O)(=O)c1ccccc1 do in these assays?
PD-1 reverse act: -0.5; YB-1 expression: -0.046; MITF inh: -15
